Bioassay records: PubChem BioAssay, National Center for Advancing Translational Sciences (NCATS)
MARV entry inh = inhibitors of Marburg virus binding or cell entry; Marburg virus pseudotyped entry inhibition, cell reporter; control for the full effect not named in the record; about a third of the inactives were read at about 46 µM; Potency, µM (titrated, usually from 37.8 µM), without a hit: at the highest dose activity change, negative = inhibition, actives largely listed as inhibitors; 300,000 tested, 1.8% active; AID 540276; active = well fitted inhibition curve with a large enough effect; inconclusive = small, poorly fitted or top-dose-only effect, or effect the other way; inactive = flat fitted curve, though single readings scatter; tested in HEK293 cells; about a fifth of its hits are not listed in these tables; note: % is set by controls: 0 for no effect and ±100 for the full control effect; luciferase read-out
Cruzain Triton = cruzain (T. cruzi) inhibition with detergent; 200,000 tested, 0.43% active; purified cruzain, Z-FR-AMC fluorescence, 0.01% Triton; Potency, µM, without a hit: max response, negative = inhibition, hits mostly inhibitors; AID 1478; P25779; active = well fitted curve in the direction sought with a large enough effect; inconclusive = small, poorly fitted or top-dose-only effect, or another doubt; inactive = no such curve, though single readings can be large; an effect the other way counts as inactive or inconclusive;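 note: plate controls were neutral wells for no effect and buffer without enzyme for full effect; nearly all actives have a fitted effect of over 40% in size; top concentration of the series not given in the record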
Target sequence (P25779 123-467 limits assumed): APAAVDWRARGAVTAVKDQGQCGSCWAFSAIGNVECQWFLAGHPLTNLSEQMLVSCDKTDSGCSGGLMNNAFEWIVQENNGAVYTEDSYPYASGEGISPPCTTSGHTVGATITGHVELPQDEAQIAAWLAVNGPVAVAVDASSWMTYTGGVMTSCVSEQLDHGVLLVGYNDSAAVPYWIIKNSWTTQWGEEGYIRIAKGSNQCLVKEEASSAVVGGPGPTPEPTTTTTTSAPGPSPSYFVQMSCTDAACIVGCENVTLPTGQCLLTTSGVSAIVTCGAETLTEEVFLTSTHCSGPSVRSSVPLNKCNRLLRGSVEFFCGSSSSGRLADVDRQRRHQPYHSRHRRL
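Read-out: AMC fluorescence (360 nm excitation, 450 nm emission), four reads over 2 min, first-to-third difference used. Conditions: cruzain 1.5 nM, Z-FR-AMC 2 uM, pH 5.5 acetate, 5 mM DTT, 0.01% Triton X-100.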
Cruzain inh noDet = blocks cruzain activity in detergent-free assay. purified cruzain, Z-FR-AMC fluorescence, no detergent. P25779. 200,000 tested, 2.3% active. Potency, µM, without a hit: max response, negative = inhibition, usual class: inhibitors; active = well fitted curve in the direction sought with a large enough effect; inconclusive = small, poorly fitted or top-dose-only effect, or another doubt; inactive = no such curve, though single readings can be large; an effect the other way counts as inactive or inconclusive;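 note: plate controls were enzyme without inhibitor for no effect and buffer without enzyme for full effect; nearly all actives have a fitted effect of over 40% in size; top concentration of the series not given in the record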
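Purified cruzain at 1.5 nM, pre-incubated 15 min with compound at room temperature in 100 mM sodium acetate pH 5.5, 5 mM DTT, 0.00005% Triton X-100. Reaction started with 2 uM Z-FR-AMC; AMC fluorescence increase over 60 s gives rate.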
RE007 growth inh = less growth of the S. pombe RE007 Vpr strain; S. pombe RE007 Vpr strain, BacTiter-Glo ATP luminescence, 24 h; control for the full effect not named in the record; Potency, µM (series often up to 92.2 µM), without a hit: top-dose activity change, negative = less growth; 360,000 tested, 0.21% active; AID 651644; active = well fitted falling curve with a large enough effect; inconclusive = small, poorly fitted or top-dose-only effect; inactive = no such curve, though single readings can be large or run the other way;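 note: % is set by controls: 0 for no effect and ±100 for the full control effect; nearly all actives have a fitted effect of over 50% in size; the assay follows cell death caused by Vpr and the record does not say whether a fall means rescue or toxicity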
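Fission yeast strain RE007, carrying one chromosomally integrated HIV-1 vpr copy, was seeded at OD 0.01 in PMG+AL medium with 23 nL pinned compound. After 24 h at 30 °C and 99% humidity, viability was read by BacTiter-Glo luminescence.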
NS1 function inh = influenza NS1 inhibition | S. cerevisiae slowed by influenza A NS1, growth recovery by OD600 | AID 2326 | Potency, µM (doses to about 46.1 µM), for the others: at the top dose activity, positive = more growth | 270,000 tested, 0.4% active; note: actives are rising curves; nearly all actives have a fitted effect of over 50% in size
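A cell-based growth assay was used: compounds that relieve NS1-induced slow growth of budding yeast raise OD600. Assay medium was yeast nitrogen base with ammonium sulphate and -URA supplement, pH 6.0, with 2% galactose.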
SARS PLpro yeast = SARS-CoV PLP inhibition in yeast | S. cerevisiae expressing SARS-CoV PLpro, growth rescue; control for the full effect not named in the record | Potency, µM (top dose mostly 32.9 µM), without a hit: top-dose activity, positive = growth rescue | 330,000 tested, 0.19% active | AID 485353; note: 0% is about no effect; nearly all actives have a fitted effect of over 55% in size; growth read by luminescence after 48 h
2A StopGo = lowers the luciferase signal of an FMDV 2A StopGo reporter; human cells with a luciferase reporter of 2A StopGo recoding; control for the full effect not named in the record; 410,000 tested, 1.2% active; Potency, µM (top dose mostly 57.9 µM), for the others: top-dose signal change, negative = less light; active = well fitted falling curve with a large enough effect; inconclusive = small, poorly fitted or top-dose-only effect; inactive = no such curve, though single readings can be large or run the other way; tested in HEK293T cells; note: % is set by controls: 0 for no effect and ±100 for the full control effect; nearly all actives have a fitted effect of over 45% in size; luciferase light after 4 h
LASV entry inh = Lassa virus entry inhibition; Lassa virus pseudotype entry inhibition, cell reporter; control for the full effect not named in the record; Potency, µM (titrated, usually from 37.9 µM), for the others: top-dose activity change, negative = inhibition, hits mostly inhibitors; 300,000 tested, 1.2% active; AID 540256; active means well fitted inhibition curve with a large enough effect; inconclusive means small, poorly fitted or top-dose-only effect, or effect the other way; inactive means flat fitted curve, though single readings scatter; tested in HEK293 cells; note: % is set by controls: 0 for no effect and ±100 for the full control effect; nearly all actives have a fitted effect of over 50% in size; luciferase read-out
Starred values were filed as active, the others as inactive; ? = inconclusive; · = no result given; & = joins results of further samples; [ ] = dose if it differs, or a comment. Unless noted, calls come from the whole dose curve; as a rule, active means well fitted rising curve with a large enough effect; inconclusive means small, poorly fitted or top-dose-only effect; inactive means no such curve, though single readings can be large or run the other way. Potency is the fitted concentration of half-maximal effect. Rows are unselected; about 4.6% have a hit in one of these screens.

Molecule	Cruzain Triton	Cruzain inh noDet	LASV entry inh	RE007 growth inh	MARV entry inh	NS1 function inh	2A StopGo	SARS PLpro yeast
COc1ccc(C(=O)COC(=O)c2c(-c3ccccc3)noc2C)c(OC)c1	·	·	-27%[46.1 µM]	-2%	?	·	?	0%
CCS(=O)(=O)N1N=C(c2cccc(NS(C)(=O)=O)c2)CC1c1ccccc1 (stereo not given)	·	·	?	-13%	?	·	12%	0%
Cc1ccc(-n2nnc(-c3nccs3)n2)cc1	·	·	·	?	·	-9%	-15%	-2%
COc1ccc(NC(=O)CC2SC(=NCC3CCCO3)NC2=O)cc1 (stereo not given)	-3.9%	-10%	-6%	11%	-1%	23%	15%	-16%
CCOC(=O)N1CCN(c2cc(=O)n(C)c(=O)n2C)CC1	·	·	0%	8%	-4%[46.1 µM]	1%	1%	2%
O=C(N/N=C/c1ccco1)C(O)C(O)C(=O)N/N=C/c1ccco1 (stereo not given)	·	·	7%[46.1 µM]	2%	-5%[46.1 µM]	-1%	-6%	1%
Oc1c(N=Nc2ccccn2)ccc2ccccc12	-4.7%	2%	1.6µM*	18µM*	4µM*	-177%	-81%	-32%
Cc1occc1C(=O)N/N=C/c1ccc(OCc2ccccc2)cc1	·	·	·	-11%	·	-80%	47%[activator]	-2%
O=C(Cc1ccccc1)NCCc1cccc(Cl)c1	6.1%	1%	1%	-12%	17%	-13%	35%[activator]	-1%
COc1ccccc1-c1nc(SCC(=O)c2ccc(Cl)cc2)n[nH]1	-2.7%	-12%	-3%[46.1 µM]	·	3%[46.1 µM]	·	-5%	·
O=C(CCCn1cc([N+](=O)[O-])cn1)NCc1ccccc1	·	·	10%	0%	-3%[46.1 µM]	·	13%	7%
Cc1ccc(-n2c(SCc3nc4ccccc4c(=O)[nH]3)nnc2-c2ccccc2O)cc1	-1.8%	-2%	-1%	1%	2%	3%	-18%	7%
COc1ccc(-c2cc(=NCCCCCC(=O)O)c3cc(C)ccc3o2)cc1	·	·	-5%[46.1 µM]	-8%&-7%	?	·	20%&32%	6%
O=C1c2cccc3cccc(c23)N1Cc1ccc(F)cc1	-9.7%	6%	-22%	-6%	-13%[46.1 µM]	-58%	-15%	-68%
Cc1ccc(-c2nc(N3CCN(C)CC3)c3ccccc3n2)cc1	·	·	·	-8%	·	1%	2%	-6%
Cc1ccc(NC(=O)CSc2nc3ccccc3c3nc(CCc4c(C)n[nH]c4C)nn23)cc1F	0.1%	?	-27%	-7%	?	25%	-18%	5%
O=C(c1cc2c(=O)n3ccccc3nc2s1)N1CCOCC1	?	12%	?	-15%	-2%	3%	12%	-1%
CC(C)CC(=O)Nc1ccc(S(=O)(=O)NCc2ccco2)cc1	1.1%	-1%	?	10%	-25%	0%	10%	-2%
COC(=O)c1ccc(C(=O)OC)c(NC(=O)CN2CCN(c3ccc(OC)cc3)CC2)c1	-1.7%	-15%	-23%	-2%	-1%[46.1 µM]	3%	-18%	10%
CCn1c(=O)cc(NC2=NCC(C)CN2c2cccc(Cl)c2)n(C)c1=O (stereo not given)	-2.8%	8%	-24%	10%	0%	3%	-2%	1%
CCOC(=O)C1=NN(c2ccccc2C)C2=NC(C)=C(C(=O)OC)C(c3cccs3)N12 (stereo not given)	-9.8%	?	9%	0%	4%	-11%	?	-8%
O=C(Nc1ccccc1C(=O)Nc1ccccc1)c1ccco1	·	·	13%[46.1 µM]	3%	0%[46.1 µM]	2%	-5%	-1%
COc1cccc(-c2csc(N3CCN(C(=O)Nc4ccccc4Cl)CC3)n2)c1	·	·	·	6%	·	13%	5%	-2%
N#Cc1ccc(OS(=O)(=O)c2ccc(-c3ccon3)s2)cc1	·	·	·	-8%	·	-14%	-18%	-1%
CCOc1ccc(Nc2cc(C(=O)NCc3ccccc3Cl)c3ccccc3n2)cc1	-2.0%	7%	-3%[46.1 µM]	·	9%[46.1 µM]	·	5%	·
Oc1ccc(Nc2nc(-c3cccs3)cs2)cc1	1.2%	-27%	14%	0%	?	18%	30%	-3%
CCn1c(COc2ccc(Cl)cc2)nnc1SCc1ccc(C#N)cc1	-1.9%	1%	?	5%	-18%	-125%	?	-21%
Cc1ccccc1C(=O)NCCc1nnc(SCC(=O)Nc2nc(-c3ccccc3)cs2)n1C	-6.5%	?	-2%	1%	13%	17%	12%	-3%
OC(COC(c1ccc(Cl)cc1)c1ccc(Cl)cc1)CN1CCN(c2ccccn2)CC1 (stereo not given)	-11%	14%	?	-11%	?	-57%	?	-29%
Cc1nn(CC(=O)NCc2ccc(C(=O)O)cc2)c(C)c1[N+](=O)[O-]	·	·	-15%[46.1 µM]	-1%	?	·	3%	0%

Overlap with the part before: 6 entries; new compounds follow.
Molecule	Cruzain Triton	Cruzain inh noDet	LASV entry inh	RE007 growth inh	MARV entry inh	NS1 function inh	2A StopGo	SARS PLpro yeast
CCOc1ccc(Nc2cc(C(=O)NCc3ccccc3Cl)c3ccccc3n2)cc1	-2.0%	7%	-3%[46.1 µM]	·	9%[46.1 µM]	·	5%	·
Oc1ccc(Nc2nc(-c3cccs3)cs2)cc1	1.2%	-27%	14%	0%	?	18%	30%	-3%
CCn1c(COc2ccc(Cl)cc2)nnc1SCc1ccc(C#N)cc1	-1.9%	1%	?	5%	-18%	-125%	?	-21%
Cc1ccccc1C(=O)NCCc1nnc(SCC(=O)Nc2nc(-c3ccccc3)cs2)n1C	-6.5%	?	-2%	1%	13%	17%	12%	-3%
OC(COC(c1ccc(Cl)cc1)c1ccc(Cl)cc1)CN1CCN(c2ccccn2)CC1 (stereo not given)	-11%	14%	?	-11%	?	-57%	?	-29%
Cc1nn(CC(=O)NCc2ccc(C(=O)O)cc2)c(C)c1[N+](=O)[O-]	·	·	-15%[46.1 µM]	-1%	?	·	3%	0%
Cc1oc(/N=C/c2ccccc2O)c(C#N)c1C	1.7%	3%	15%[14.3 µM]	15%	1%	6%	-14%	3%
CCn1c(=O)cc(SCC(=O)N2CCC(C)CC2)c2ccccc21	2.0%	-6%	10%	12%	?	-10%	-10%	-2%
O=C(NCc1ccccc1Cl)C1CCN(S(=O)(=O)Cc2ccccc2)CC1	-6.6%	?	0%[46.1 µM]	·	-6%[46.1 µM]	·	-17%	·
CCC(C)NC(=O)c1cc(Cl)ccc1OC (stereo not given)	0.9%	-8%	12%	-3%	0%	-8%	-6%	-2%
Cc1cccc(NC(=S)N2CCC(O)CC2)c1C	·	·	4%[46.1 µM]	-5%	16%[46.1 µM]	3%	-7%	0%
Cc1cc(C)cc(OCCSc2nc(-c3ccc(C(C)(C)C)cc3)nc3cc(=O)[nH]n23)c1	-1.0%	?	15%[46.1 µM]	·	·	·	-22%	·
Cc1nc2ccn(Cc3cccs3)c(=O)c2cc1C(=O)NCc1ccc(Cl)cc1	-4.9%	?	?	·	·	·	9%	·
CCC(C)(C)NC(=O)C(c1ccc(F)cc1)N(Cc1ccco1)C(=O)CCC(=O)Nc1ccccn1 (stereo not given)	-4.3%	?	-7%	2%	?	-21%	0%	-6%
O=C1OCCN1C(=O)[C@H]1[C@H](c2ccc(F)cc2)C(c2cccc(Cl)c2)=NN1c1ccccc1	-3.9%	20µM*	·	-10%	·	·	-24%	-8%
CCOc1ccccc1Nc1nnc(-c2cc3cc(Cl)ccc3oc2=O)s1	4.2%	-2%	7%[46.1 µM]	·	·	·	-5%	·
COc1ccc(C(C(=O)NCC2CCCO2)N(C(=O)Cn2nnc3ccccc32)c2ccccc2C(C)=O)cc1OC (stereo not given)	·	·	·	-6%	-16%[46.1 µM]	-5%	79%[activator]	-5%
Cc1cccc(C)c1N1C(=O)c2cccc([N+](=O)[O-])c2C1=O	-0.1%	-5%	10%	4%	21%	3%	-26%	19%
COc1ccc(NC(=O)c2onc(C)c2Cl)cc1	·	·	·	1%	·	-1%	45%[activator]	-2%
CN(C)S(=O)(=O)c1cccc(NC(=O)COC(=O)/C=C/c2ccc3c(c2)OCO3)c1	·	·	-11%[46.1 µM]	1%	9%[46.1 µM]	9%	4%	0%
Cn1c(=O)c2c(SCC(=O)N3CCN(c4ccccc4)CC3)nc(C3CC3)nc2n(C)c1=O	·	·	·	6%	·	-98%	?	-2%
Cc1c(NC(=O)C2CCCCN2S(=O)(=O)c2ccc(Cl)cc2)c(=O)n(-c2ccccc2)n1C (stereo not given)	1.6%	10%	·	1%	0%	0%	-15%	-1%
CC(C)OCCCNc1ncc2c(n1)CC(c1cccs1)CC2=O (stereo not given)	·	·	?	8%	1%	1%	4%	-1%
O=C(/C=C/c1ccccc1)NNC1=NS(=O)(=O)c2ccccc21	·	·	·	10%	·	-3%	20%	0%
CS(=O)(=O)c1ccc(Cl)c(NC(=O)COC(=O)c2ccc(F)cc2Cl)c1	·	·	6%	4%	?	-1%	-15%	-2%
